# Mtb hypoxia rep: reduces hypoxia-regulated biosensor signal in M. tuberculosis; 300,000 compounds, 0.1% hits; M. tuberculosis hypoxia-regulated fluorescent reporter, fluorescence; AID 1159583; fluorescence inhibition, % (no concentration beside the values);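 active = 35 to 45% if threefold the growth effect, above 45% if 1.5-fold the growth effect; inactive = the rest, general growth blockers included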;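 also: wells of about 50 µL received 100 nL stock; 0% = vehicle wells and 100% = reference inhibitor wells; whole bacteria with a GFP reporter of the hypoxia response; strong numbers were not always called active; many hits fall short of the cut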
# Sa RN4220 lethal: S. aureus RN4220 growth inhibition | OD600, 16 h | inhibition, % (no concentration beside the values) | 330,000 compounds, 0.33% hits | AID 1259311;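 active = z-score of -3 or lower and OD600 up to 0.18 on both plates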;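 also: plate controls were untreated cells for no effect and reference antibiotic for full effect; stock transfer was 100 nL into about 80 µL; one replicate is shown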
# PrP 5UTR inh: inhibition of PrP 5' UTR reporter expression; cell-based PrP 5' UTR mRNA reporter, plate reader; inhibition, % (concentration not given with the values); 340,000 compounds, 0.35% hits;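 active = every replicate at 50% or more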;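 also: 0 = median of the neutral control wells; tested in H4 reporter cells; numbers are from one replicate; inactives centre near -14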
# Autofluor counter: compound fluorescence in toxin protease inhibitor counterscreen. compound autofluorescence counterscreen, microsphere flow cytometry; active compounds read high. fluorescence intensity (concentration not given with the values). 360,000 compounds, 3.1% hits. AID 624483;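 active = at least 3 SD above the mean of all compounds, about 16000 in these data; inconclusive = too few beads counted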;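 also: 100 nL of 1 mM stock went into each well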
# BJeLR viability: kills HRASV12-expressing BJeLR cells; BJeLR (HRASV12) viability, CellTiter-Glo ATP luminescence, 48 h; reference of the scale not given here; inhibition, % (concentration not given with the values); 300,000 compounds, 0.17% hits;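 active = replicate mean above 50%; inconclusive = above 50% but judged a plate artefact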;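 also: 50 nL library stock added to about 25 µL; numbers are from one replicate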
# Sa ugtP lethal: kills S. aureus RN4220 lacking UgtP; S. aureus RN4220 ugtP deletion, OD600 growth, 16 h; some inactives read as strong as hits; growth inhibition, % (concentration not given with the values); 330,000 compounds, 0.54% hits;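 active = z-score under -3 and OD600 up to 0.15 on both plates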;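 also: plate controls were untreated wells for no effect and antibiotic for full effect; wells of about 80 µL received 100 nL stock; the first replicate is given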
# Mtb hypoxia rep growth: further read-out of Mtb hypoxia rep, marked with its call; growth inhibition, %; measured here: M. tuberculosis growth (absorbance);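 0% = vehicle and 100% = reference antibiotic; read after six days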
# The depositor's hits bear a star; ? = inconclusive; . = not tested or not shown.
SMILES,Mtb hypoxia rep,Mtb hypoxia rep growth,Sa RN4220 lethal,PrP 5UTR inh,Autofluor counter,BJeLR viability,Sa ugtP lethal
O=C(c1ccc(Br)cc1)C1CCc2occc2C1=O (stereo not drawn),11,11,6.4,0,22206*,7,3
CC(=O)Nc1ccc(S(=O)(=O)NCCCCNS(=O)(=O)c2ccc(NC(C)=O)cc2)cc1,6,7,1.7,-68,3496,4,21
O=C1/C(=C\c2ccc(O)cc2)SC(=S)N1N=Cc1ccc(O)cc1,1,10,1.6,.,.,.,-7
COc1ccc(NC(=O)Nc2cccc3ccccc23)cc1OC,-1,-2,-1.0,-2,6102,-11,-4
COc1ccc(N(CC(=O)NCc2ccc(F)cc2)C(=O)CCC(=O)Nc2nccs2)cc1,-6,11,0.9,19,3906,-4,-1
CCOC(=O)N/N=C/c1ccccc1OCc1ccc(Cl)cc1,.,.,.,-44,2467,-17,.
O=C(CN(C(=O)CCC(=O)Nc1nccs1)c1ccc(F)cc1)NCc1ccc(F)cc1,-6,4,-2.2,-38,3939,-7,15
Cc1ccc(S(=O)(=O)/C=C/c2ccccc2)cc1,.,.,.,-33,10491,-9,.
O=c1[nH]c2ccc(S(=O)(=O)N3CCCCC3)cc2o1,14,1,2.0,1,5850,-2,1
CCn1c(SCC(=O)Nc2cc(C)on2)nnc1-c1ccc(S(=O)(=O)N2CCCC2)cc1,-3,5,3.6,-26,20376*,14,9
CC(C)NS(=O)(=O)c1ccc(OCC(=O)N2CCN(Cc3ccccc3)CC2)cc1,6,-14,5.5,12,9636,-10,5
CC1=C(C(=O)Nc2ccc(C)cn2)C(c2cnn(C)c2)C2=C(CCCC2=O)N1 (stereo not drawn),5,4,-0.8,-23,8275,9,8
CCC(SC1=Nc2ccccc2C2=NC(CC(C)C)C(=O)N12)C(=O)Nc1ccc2c(c1)OCO2 (stereo not drawn),2,10,2.7,-16,3897,-10,8
CCOP(=O)(OCC)C(Nc1ccc(OC)cc1)c1ccco1 (stereo not drawn),-4,7,2.2,36,4481,-4,10
CC(C)C(C)N(Cc1ccc(C(=O)O)cc1)C(=O)c1ccc2ccccc2n1 (stereo not drawn),-2,5,2.3,-15,.,-12,12
CCCC(=O)Nc1sc(Cc2ccccc2)c(C)c1C(N)=O,8,4,2.3,-13,4539,-11,4
O=C(NC(=S)Nc1nc2c(s1)CCCC2)c1ccccc1,2,5,-0.7,-77,1993,-9,23
COc1cc(NC(=O)CC(C)=NNC(=O)c2ccccn2)c(OC)cc1Cl,-1,-1,-2.7,.,.,.,1
CCOC(=O)c1ccc(S(=O)(=O)N2CCN(C(=O)c3cc4ccccc4o3)CC2)cc1,4,-6,1.3,-25,5257,.,0
COc1ccc(Cl)cc1NC(=O)CN(C)C(=O)CN1C(=O)NC2(CCCC2)C1=O,7,-6,2.6,-5,?,0,0
CC1(C)OC2C(CO)OC(n3c(N4CCCCC4)nc4c(N)ncnc43)C2O1 (stereo not drawn),8,2,4.6,.,.,.,6
Cc1c(C(=O)N2CCOCC2)sc(NC(=O)c2ccc3c(c2)OCO3)c1C#N,5,5,6.2,-38,8937,-5,12
Cn1c(NN=Cc2cccs2)cc(=O)n(C)c1=O,3,7,-0.3,.,.,.,-11
COCCOC(=O)C1=C(C)NC(=O)NC1c1c(OC)ncnc1OC (stereo not drawn),1,1,1.0,-7,3829,6,-6
COC(=O)c1sc(-c2ccccc2)cc1NC(=O)C1CC1,16,7,7.0,-1,4265,0,11
CC(=O)Nc1ccc(OCC(O)Cn2ccnc2C)cc1 (stereo not drawn),3,8,1.8,-24,3419,-7,7
O=C1/C(=C/c2ccncc2)CCC/C1=C\c1ccncc1,.,.,9.5,20,4297,68*,2
CCc1ccc(NC(=O)CSc2nc3cc(C(=O)OC)ccc3c(=O)n2CC2CCCO2)cc1 (stereo not drawn),8,5,3.1,-17,8177,-11,6
Cc1nc(SC(C)C(=O)Nc2cccc(C(F)(F)F)c2)c2c(C)c(C(=O)O)sc2n1 (stereo not drawn),-6,-10,14,-9,4546,-16,12
COc1cccc(-c2csc(N3CCN(C(=S)Nc4cccc(Cl)c4)CC3)n2)c1,18,4,0.7,-26,11098,-9,2

# Entries of single compounds, looked up by structure. Values in the order: Mtb hypoxia rep | Mtb hypoxia rep growth | Sa RN4220 lethal | PrP 5UTR inh | Autofluor counter | BJeLR viability | Sa ugtP lethal
# Cc1nc(SC(C)C(=O)Nc2cccc(C(F)(F)F)c2)c2c(C)c(C(=O)O)sc2n1 (stereo not drawn) reads -6 | -10 | 14 | -9 | 4546 | -16 | 12
# Cn1c(NN=Cc2cccs2)cc(=O)n(C)c1=O reads 3 | 7 | -0.3 | . | . | . | -11
# CC1(C)OC2C(CO)OC(n3c(N4CCCCC4)nc4c(N)ncnc43)C2O1 (stereo not drawn) reads 8 | 2 | 4.6 | . | . | . | 6

# Other compounds.
SMILES,Mtb hypoxia rep,Mtb hypoxia rep growth,Sa RN4220 lethal,PrP 5UTR inh,Autofluor counter,BJeLR viability,Sa ugtP lethal
COc1ccc(N2C(=O)NC(NS(=O)(=O)c3ccccc3)(C(F)(F)F)C2=O)cc1 (stereo not drawn),2,5,0.5,-5,5133,2,6
O=C(CN1C(=O)c2ccc([N+](=O)[O-])cc2C1=O)NCc1ccc(C(=O)O)cc1,9,-3,-2.3,-20,3635,7,6
O=C(O)c1ccccc1Oc1ccc(Oc2ccccc2)cc1,14,16,1.9,-14,3533,23,5
CN(C(=O)CN1CCC(NC(=O)c2ccccc2Br)CC1)C1CCCCC1,3,6,1.3,-7,4119,-6,9
CCn1c(SCc2cccnc2)nnc1-c1c[nH]c2ccccc12,3,15,-2.3,-15,5416,0,-2
COc1ccc(OC(=O)COc2cccc(C)c2)cc1,-4,6,2.7,-14,2837,0,-2
COc1ccc(CC(=O)NCc2nnc(SCC(=O)c3ccc(OC)cc3)n2C)cc1,0,2,12,-6,3858,12,3
CCOc1ccc(NC(=O)CSc2nnc(-c3ccccn3)n2N)cc1,10,9,5.1,8,16005,-2,7
CNC(C(=O)c1ccccc1)C(OC(C)=O)c1cccc([N+](=O)[O-])c1 (stereo not drawn),8,-2,4.4,-13,5403,-3,-2
CC1C(=O)N(Cc2ccc([N+](=O)[O-])cc2)c2ccccc2N1C(=O)C1CC1 (stereo not drawn),9,7,5.9,.,.,1,3
Cc1sc2ncn(CC(=O)NCCCC(=O)Nc3ccc(C(C)C)cc3)c(=O)c2c1C,8,-1,8.1,-24,4160,-1,3
COc1ccc(NC(=O)c2sc3ncn(CC(=O)N4CCN(c5ccccn5)CC4)c(=O)c3c2C)cc1OC,-8,8,1.7,-20,4492,0,0
CC(=O)N1CCN(C(=O)C(Cc2c[nH]c3ccccc23)NC(=O)c2ccccc2Cl)CC1 (stereo not drawn),3,5,-2.3,-14,5964,-9,3
O=C(NCCN1CCOCC1)c1cccc(S(=O)(=O)Nc2ccc(Br)cc2)c1,6,0,-0.3,-8,3592,.,-7
O=C(Cc1ccccc1)Nc1ccc(NC(=O)c2ccco2)cc1,4,-6,-2.8,-14,3302,-2,7
Cc1ccc(NC(=O)CCC(=O)NNC(=O)c2ccco2)c(C)c1,4,3,2.0,-34,10316,-3,3
COc1ccc2cc(C#N)c(SCC(=O)N3CC(=O)Nc4ccccc43)nc2c1,7,-3,2.5,-27,5953,28,11
Cc1[nH]c2ccc(-c3n[nH]c(=S)n3Cc3ccccc3)cc2c1C,10,9,-3.9,-8,2403,-13,-23
CC1(C)NC(=O)N(CCCCOc2ccc(Br)cc2Cl)C1=O,-6,-10,3.2,-5,?,-4,-5
CC1(C)Cc2c(sc(NC(=O)C(=O)N3CCCC3)c2C#N)CO1,-2,6,-1.1,-6,5283,-6,2
COc1ccc2[nH]c(C(=O)N/N=C/c3cc(OC)c(OC)c(OC)c3)cc2c1,.,.,.,24,4483,0,.
COC(=O)c1ccccc1NC(=O)NCc1ccco1,6,6,5.3,-13,12894,-9,12
N/C(=N\OS(=O)(=O)c1ccc2ccccc2c1)c1ccccn1,7,2,7.3,-30,3103,.,15
Oc1ccc(Br)cc1/C=N/N1CCN(Cc2cccc3ccccc23)CC1,.,.,.,-6,4885,-13,.
O=C(CSc1nnc(SCc2ccccc2)s1)N/N=C/C=C/c1ccccc1[N+](=O)[O-],.,.,.,-11,2561,3,.
CC(C)(C)c1ccc(NC(=S)NCc2cccnc2)cc1,5,10,0.5,-7,?,-2,5
CC(=O)c1ccc(N2CCN(C(=O)CCCn3c(=S)[nH]c4cc5c(cc4c3=O)OCO5)CC2)cc1,-17,-14,25,-34,5163,.,-25
CCCCCCC(=O)NNC(=O)CC(=O)Nc1ccccc1C(=O)O,11,1,4.7,2,1721,2,6
COc1ccc(-n2cc(-c3ccccc3)c3c(N4CC(C)OC(C)C4)ncnc32)cc1 (stereo not drawn),0,1,48,12,3855,-16,-4
COc1cc(C=NOC(=O)Nc2ccccc2)cc(OC)c1OC,20,8,1.4,-2,4021,.,-1
CC(C)(C)CN1CCC(Oc2cccc(C(=O)N3CCNC(=O)C3(C)C)c2)CC1,3,4,2.0,-4,5852,-4,4
O=C(CC1CCCCC1)N1CCCC(c2nc(-c3ccc(S(=O)(=O)N4CCCC4)cc3)no2)C1 (stereo not drawn),-1,6,-0.7,-32,10318,-1,1
CCOC(=O)COc1ccc2c(=O)c(-c3ccccc3OC)coc2c1,18,18,4.9,-4,4982,-2,-4
O=C(CCc1nnc2ccc(NCc3ccco3)nn12)Nc1cc(F)ccc1F,-6,0,-3.2,-9,5699,0,-4
N#Cc1c(N)n(CCNC(=O)c2ccc(Cl)cc2)c2nc3ccccc3nc12,8,-1,3.7,-10,2384,5,5
C#CCOCCOCCOCCNc1nc(N2CCN(C(=O)C(CC(N)=O)n3cc(C(N)CC(N)=O)nn3)CC2)nc(N2CCN(C(=O)C(CC(N)=O)n3cc(C(N)CC(N)=O)nn3)CC2)n1 (stereo not drawn),9,6,5.9,.,.,.,5
O=C(NNC1CC(=O)N(c2ccc(F)cc2)C1=O)c1cccnc1 (stereo not drawn),-8,3,3.5,-18,3630,14,3
O=C(CSCc1cccc(Cl)c1)Nc1ccccc1-c1ccccc1,4,4,10,5,2187,5,-17
c1ccc(OCCCn2ccnc2)cc1,3,1,1.0,-1,3797,-6,1
O=C(CN1CCN(c2ccccn2)CC1)Nc1cc(C(F)(F)F)ccc1Cl,.,.,0.4,-50,2666,5,-6
CCOc1ccc(S(=O)(=O)N(C)c2ccc(OCC(=O)NCc3cccnc3)cc2)cc1,-11,-1,5.3,-11,5026,8,-5
CCOC(=O)c1c(C)n(CC)c2c1cc(O)c1ccccc12,-6,4,2.4,-20,4177,-8,-7
CCCCN1C(=O)Nc2ccccc2S1(=O)=O,2,12,7.1,3,2542,-4,-3
CC(C)(C)OC(=O)NC(Cc1ccccc1)C(=O)NC(CO)C(O)C1CC1C(=O)NC1CCCCC1 (stereo not drawn),14,12,9.8,.,.,.,-1
N#Cc1ccccc1OCC(=O)OCC(=O)Nc1ccc2c(c1)OCO2,-2,-5,3.9,-25,6411,.,14
O=C(CCc1cn(Cc2ccc(F)cc2)c2ccccc12)N1CCOCC1,0,5,4.3,-5,3262,-2,1
O=[N+]([O-])c1ccc(O)c(C=Nc2cccc3ccccc23)c1,10,4,78,-30,3283,-3,56
Cc1oc(-c2cccs2)nc1CS(=O)CC(=O)NCCCN1CC(C)CC(C)C1 (stereo not drawn),3,10,-9.5,-16,6668,-7,-6
Nc1c(C(=O)NC2CCCC2)c2nc3ccccc3nc2n1CC1CCCO1 (stereo not drawn),.,.,.,-1,4737,-5,.
CCOc1ccc(NS(=O)(=O)c2ccc(C(=O)N(C)CC(=O)Nc3ccc(C)cc3)cc2)cc1,7,6,-0.8,-6,4585,-3,12
COc1ccc(C(=O)Nc2ccc(NC(C)=O)cc2)cc1S(=O)(=O)N1CCCC1,8,2,4.9,-16,2818,.,7
Cc1noc(C)c1S(=O)(=O)Nc1ccc2c(c1)C(=O)N([C@H](C)CO)C[C@H](C)[C@@H](CN(C)C(=O)Nc1ccccc1)O2,0,4,0.9,-36,4030,.,1

# Screening data from PubChem.
